Compound activity from PubChem.
Vaccinia mCherry: vaccinia inhibition (mCherry reporter) | Vaccinia virus mCherry reporter infection, fluorescence; about a quarter of the inactives have no number | Potency, µM (series often up to 36.5 µM), inactives show at the highest dose activity change, negative = inhibition, most hits filed as inhibitors | 0.63% of 310,000 active | AID 720579; active = well fitted inhibition curve with a large enough effect; inconclusive = small, poorly fitted or top-dose-only effect; inactive = no such curve, though single readings can be large or run the other way; tested in A549 cells; note: nearly all actives have a fitted effect of over 35% in size; inactives centre near -10
VACV Venus inh: inhibitors of vaccinia virus (Venus reporter) | Vaccinia virus Venus reporter expression, fluorescence | Potency, µM (highest dose often 36.5 µM), for the others: top-dose activity change, negative = inhibition, usual class: inhibitors | 0.46% of 330,000 active; active means well fitted inhibition curve with a large enough effect; inconclusive means small, poorly fitted or top-dose-only effect; inactive means no such curve, though single readings can be large or run the other way; tested in A549 cells; note: nearly all actives have a fitted effect of over 30% in size; inactives centre near -10
Active calls of the source: *; i = inactive; ? = inconclusive; . = no result given; & = joins results of further samples; [ ] = remark or other dose. % is set by controls: 0 for no effect and ±100 for the full control effect; potency is the fitted concentration of half-maximal effect.

SMILES,Vaccinia mCherry,VACV Venus inh
COc1cc(CNc2ccc(N3CCCCC3)cc2)ccc1OCC(=O)NC(C)(C)C,?,15.2%
COc1ccc(-c2[nH]ncc2-c2ccc3c(c2)OCCO3)c(O)c1,.,-25.2%
O=c1[nH]c2cc(C(F)(F)F)ccc2n1-c1cc(C(F)(F)F)ccc1O,-10.2%&-2.5%,?
CCCCc1c(C)[nH]c2c(OC)cccc2c1=S,i,-13.4%
NC(=O)c1csc(C2OC(CO)C(O)C2O)n1 (centres undefined),-5.4%,-6.4%
CCOC(=O)C1=C(O)/C(=C\c2sccc2C)N=C1C,-13.3%,-3.6%
CCOc1cc(/C=N\NC(=O)c2c(C)nc3ccccn23)ccc1O,i,-9.9%
Cc1ccc(S(=O)(=O)c2c[nH]c3ccc(Cl)cc3c2=O)cc1,-27.8%,-19.0%
Cc1cc(C)c(S(=O)(=O)Nc2ccccc2C(=O)N2CCCC2)c(C)c1,-14.7%,-19.5%
COc1ccc(N(CC(O)CN2CCOCC2)S(=O)(=O)c2ccccc2)cc1 (centres undefined),-20.9%,-7.7%
O=C(Nc1cscc1S(=O)(=O)c1ccccc1)c1ccccc1Cl,i,1.1%
CCOC(=O)N1CCN(C(=O)COC(=O)c2cc(Cl)cc(Cl)c2)CC1,-5.1%,-1.5%

Single records, from the list above. Screens in order: Vaccinia mCherry | VACV Venus inh
`CCCCc1c(C)[nH]c2c(OC)cccc2c1=S` reads i | -13.4%
`O=c1[nH]c2cc(C(F)(F)F)ccc2n1-c1cc(C(F)(F)F)ccc1O` reads -10.2%&-2.5% | ?

Next part
SMILES,Vaccinia mCherry,VACV Venus inh
CC(=O)c1ccc(OCc2cc(C(=O)N3CCCCCCC3)no2)cc1,-18.1%,-15.7%
O=C(NCc1ccccc1)C(c1ccccc1)n1c(C2CC2)nc2ccccc21 (centres undefined),4.7%,-6.7%
COc1ccc2c(c1)c1nnc(SCCN3CCOCC3)nc1n2C,-8.3%,-11.0%
Cn1c(/C(C#N)=N/O)nc2ccccc21,.,-3.0%
COc1ccc(S(=O)(=O)n2oc(=O)cc2-c2ccccc2)cc1,-22.6%,-27.8%
C=CCc1cc(C=O)cc(OCC)c1OCc1ccc(Cl)cc1,-0.4%,-9.4%
CC(C)COc1ccc(C(=O)Nc2ccc(NC(=O)c3ccco3)cc2)cc1,-10.9%,4.5%
Cc1ccccc1CN1Cc2cccc3c2[C@H](C=CC3)CC1=O,i,-9.8%
Cc1ccn2c(NC(=O)c3cccs3)c(-c3ccccc3)nc2c1,-22.4%,-8.0%
CCn1cc(C(=O)NCCN(CC(C)C)CC(C)C)c(=O)c2cc(S(=O)(=O)N(C)C3CCCCC3)ccc21,-8.6%,0.3%
Cc1cc(C)cc(NC(=O)Cn2ncn3c(cc4ccccc43)c2=O)c1,-28.7%,-28.9%
CNC(=O)c1cccc2nc3ccccc3nc12,?,6.31µM*

Continuation.
SMILES,Vaccinia mCherry,VACV Venus inh
Cc1ccc(NC(=O)c2noc3c2CCc2ccccc2-3)cc1,-8.2%,-4.3%
CC(C)(CO)NC12CC3CC(CC(C3)C1)C2,-8.9%,-3.3%
O=C(Nc1ccncc1)c1ccc(N2CCCC2=O)cc1,-12.3%,-15.7%
O=C(NCCN1CCOCC1)c1cc(-c2ccc(Cl)s2)nc2ccccc12,-12.2%,2.9%
O=C1NC(=O)C(c2ccccc2)(c2ccc(Cl)cc2Cl)N1 (centres undefined),-9.5%,1.0%
CC(C)CN1CCN(CCCc2ccccc2)C(CCO)C1 (centres undefined),-9.2%,-2.4%
O=C(Nc1cc2cccc([N+](=O)[O-])c2oc1=O)c1cccs1,i,3.9%
CC(C)c1cnc2c(c1SCc1cccc(C(F)(F)F)c1)c(=O)n(C)c(=O)n2C,-3.8%,-11.0%
O=C(/C=C/c1ccccc1[N+](=O)[O-])c1ccc(F)cc1,-12.7%,-0.7%
Fc1ccc(NC(=S)N2CCN(c3cccc(C(F)(F)F)c3)CC2)cc1,?,-20.4%
CC(C)c1ccc(OCC(=O)NCCS(=O)(=O)N2CCN(c3ccc(F)cc3)CC2)cc1,-13.0%,-12.1%
COc1ccccc1NC(=O)N(Cc1ccc2c(c1)OCO2)Cc1nc2ccccc2c(=O)[nH]1,48.3%[activator],51.5%[activator]

(list continues)
SMILES,Vaccinia mCherry,VACV Venus inh
Cc1ccc(N=Cc2c(O)c3ccccc3n(C)c2=O)cc1,-24.2%,-24.3%
COc1cccc(Nc2nc3cc(OC)ccc3cc2C#N)c1,-17.6%,-16.0%
CCOC(=O)Cn1cnc2c(cnn2-c2ccccc2)c1=O,-18.6%,-3.3%
Cc1nc(SCC(=O)NC2CCS(=O)(=O)C2)c2c3c(sc2n1)CCCC3 (centres undefined),-20.9%,-13.1%
CCOC(=O)Nc1ccc(OC)cc1S(=O)(=O)N1CCCCC1,.,-11.1%
CC(C)CC(=O)N(Cc1ccc(F)cc1)C1CCS(=O)(=O)C1 (centres undefined),-0.8%,-8.0%
CCC(C)NC(=O)/C=C1\Sc2ccccc2NC1=O (centres undefined),-23.5%,-7.2%
COc1ccc(CCNC(=O)CCc2ccc(S(=O)(=O)NCC(C)C)cc2)cc1OC,-14.8%,-10.0%
Cc1ccc(-c2nn(-c3ccc(F)cc3)c3c2cnc2cc(F)c(F)cc23)cc1,7.9%,-2.1%
CC1(C)Cc2c(sc(/N=C/N3CCCCCC3)c2C#N)C(C)(C)N1,-20.1%,-12.2%
Cc1[nH]c2ccccc2c1C(c1ccncc1)N1CCN(c2ccc(F)cc2)CC1 (centres undefined),-26.0%,-8.4%
COc1ccc(Br)cc1CNc1ccc2[nH]c(=O)[nH]c2c1,?,2.0%

Given with values under each structure: part of the list above
Values run as follows: Vaccinia mCherry	VACV Venus inh
Cc1ccc(N=Cc2c(O)c3ccccc3n(C)c2=O)cc1
    -24.2%	-24.3%
COc1cccc(Nc2nc3cc(OC)ccc3cc2C#N)c1
    -17.6%	-16.0%
CCOC(=O)Cn1cnc2c(cnn2-c2ccccc2)c1=O
    -18.6%	-3.3%
Cc1nc(SCC(=O)NC2CCS(=O)(=O)C2)c2c3c(sc2n1)CCCC3 (centres undefined)
    -20.9%	-13.1%

The list continues.
SMILES,Vaccinia mCherry,VACV Venus inh
Cc1ccc(N2CCN(C(=O)NC3CCCCC3)CC2)c(C)c1,-0.5%,-17.9%
CN(c1ccccc1)c1nc(N)c([N+](=O)[O-])c(NCc2ccco2)n1,-21.0%,-13.1%
O=C(CSc1nc2ccccc2[nH]1)c1cccs1,-15.2%,0.0%
Cc1cccn2c(=O)cc(COc3cccc(NC(=O)COc4ccc(F)cc4)c3)nc12,?,?
O=C(Nc1cccc2c(=O)[nH][nH]c(=O)c12)c1ccc([N+](=O)[O-])cc1,17.8%,7.0%
Cn1c(=O)n(CCc2ccccc2)c(=O)c2c1nc1n2CCN1c1ccc(Cl)cc1,-7.4%,1.0%
Cc1noc(C)c1S(=O)(=O)N1CCCC(C(=O)c2cccc(OC(C)C)c2)C1 (centres undefined),-8.4%,-4.0%
CC1(c2ccc3ccccc3c2)NC(=O)N(CC(=O)N2CCC(C(N)=O)CC2)C1=O (centres undefined),i,0.0%
CCC(=O)N1c2ccccc2CC1C(=O)NCc1ccc(OC(C)C)cc1 (centres undefined),-19.5%,-13.3%
Cc1ccccc1NC1(C#N)C(=O)Nc2ccccc21 (centres undefined),-10.9%,-1.5%
Cc1nc(SCC(=O)NC(C)(C)C)c2c(-c3cccs3)csc2n1,?,-8.6%
CCn1cc(CNC(=O)c2cc(COc3ccc(F)cc3Cl)on2)cn1,-17.6%,-21.0%

Continued.
SMILES,Vaccinia mCherry,VACV Venus inh
O=C(NCCS(=O)(=O)N1CCN(c2cccc(Cl)c2)CC1)C1CC1,i,-17.0%
CC(=O)CCS(=O)(=O)c1ccc(Oc2ccc(S(=O)(=O)CCC(C)=O)cc2)cc1,.,-16.9%
CC(=O)c1ccc(N2CCN(C(=O)c3cc(-c4ccncc4)nc4ccc(Br)cc34)CC2)cc1,-9.7%,0.7%
Cc1[nH]c(=O)c(C#N)c(C)c1CCC(=O)NCc1ccc(Cl)cc1,-13.3%,3.5%
O=C(NCCN1CCCCC1)c1ccc(Cn2c(SCc3cccc(F)c3)nc3cccnc32)cc1,-18.1%,-13.7%
Cc1ccc(C)c(C(C)NC(=O)C2CCCC2)c1 (centres undefined),-13.8%,-5.3%
O=C(O)/C=C/C(=O)NCc1ccccc1,-6.6%,-2.9%
Cc1c(-c2ccccc2Cl)nc2ccccc2c1C(=O)O,i,-12.4%
O=C1N(S(=O)(=O)c2ccccc2F)C(=O)C2(CCCC2)N1S(=O)(=O)c1ccccc1F,-9.3%,-6.0%
OCC[n+]1c2ccccc2nc2ccc(N3CCOCC3)cc21,-12.2%,2.5%
CCOC(=O)Nc1ccc(N2CCOCC2)c(S(=O)(=O)N2CCOCC2)c1,i,-15.0%
COc1ccc(OC)c(-c2csc(NC(=O)Cc3cccs3)n2)c1,-5.6%,-24.9%

Remaining list, next part.
SMILES,Vaccinia mCherry,VACV Venus inh
COC(=O)c1c(C(=O)OC)c2ccncn2c1Cl,.,-12.9%
O=C(Oc1cccnc1)c1ccccc1[N+](=O)[O-],-7.9%,-0.5%
O=c1c([N+](=O)[O-])cccn1Cc1cccc(Br)c1,-0.8%,-10.9%
O=C(O)c1ccccc1OCc1ccccc1Br,-18.2%,1.9%
Cc1cccc(NC(=O)COc2cccc3c2CCN(Cc2ccccc2)C3=O)c1C,i,-20.3%
Cc1ncc([N+](=O)[O-])n1CC(=O)Nc1ccccc1,-9.3%,3.5%
Cn1cc([N+](=O)[O-])c(C(=O)NCc2ccco2)n1,-4.7%,-10.3%
Cc1cccc(-c2nc3cc([N+](=O)[O-])ccc3o2)c1,-9.7%,-12.3%
CC(C)(C)C(=O)CN1C2=NCCN2c2ccccc21,-11.2%,4.2%
Cn1c(NC(=O)c2ccc(C(C)(C)C)cc2)cc(=O)n(C)c1=O,-17.4%,-8.0%
Cn1c(Cn2nnc3ccccc32)nnc1SCC(=O)N1c2ccccc2CCc2ccccc21,-0.1%,-10.5%
C=CCn1c(COc2ccccc2F)nnc1SCC(=O)c1c[nH]c2ccccc12,-14.9%,-26.3%

Following part:
SMILES,Vaccinia mCherry,VACV Venus inh
CCOc1ccc(NC(=O)c2cn(CC(C)C)c(=O)c3c2c2ccccc2n3C)cc1,-1.4%,-1.0%
COc1ccc(CN(C)C(=O)CC(c2ccccc2)c2ccccc2)cc1,-9.1%,1.6%
COc1ccc(C2C3=C(CC(C)(C)CC3=O)N(C)C3=C2C(=O)CC(C)(C)C3)cc1OC,i,-1.3%
O=C1N(Cc2cccc(C(F)(F)F)c2)c2ccccc2S(=O)(=O)N1c1cccc(Cl)c1,15.0%,9.4%
Cc1ccc2oc(=O)n(CCNC(=O)Nc3ccccc3C)c2c1,-7.7%,-1.5%
CN(C[C@H](Cc1ccccc1)N(C[C@H](Cc1ccccc1)N(CCc1cc(C(F)(F)F)cc(C(F)(F)F)c1)N=O)N=O)N=O,i,-22.0%
COc1ccc(C2C=C(c3ccccc3)Nc3nc(NC(C)=O)nn32)cc1 (centres undefined),-10.0%,-13.6%
COc1ccc(OC)c(-c2cc(C(=O)Nc3cnn(Cc4ccc(Cl)cc4Cl)c3)no2)c1,-28.7%,?
CC(NC(=O)/C(=C\c1ccco1)NC(=O)c1ccccc1Br)C(=O)O (centres undefined),-11.0%,-10.7%
Cc1ccc(NC(=O)c2oc3ccc(S(=O)(=O)N4CCC5(CC4)OCCO5)cc3c2C)cc1Cl,-3.5%,-10.1%
C=CCOc1cccc(C(=O)N2CCCC(CCC(=O)NCc3ccccc3F)C2)c1 (centres undefined),i,-10.4%
Cc1nc2ccccc2c(=O)n1-c1ccncc1,2.9%,2.8%

(list continues)
SMILES,Vaccinia mCherry,VACV Venus inh
O=C1CSC(=S)N1N=Cc1c[nH]c2ccc(Br)cc12,-6.4%,-10.1%
Cc1cc(C)cc(NC(=O)CCn2c(=S)[nH]c3ccccc3c2=O)c1,i,-13.2%
Fc1ccc(-n2nnc(-c3cccnc3Cl)n2)cc1,i,-11.8%
CC1CCCCN1CC(=O)Nc1cc(S(=O)(=O)N2CCOCC2)ccc1N1CCCC1 (centres undefined),8.0%,-6.3%
COC(=O)c1[nH]c2ccc(C)cc2c1NC(=O)Nc1ccccc1OC,.,-27.4%
CC(C)(C)NC(=O)Cn1nc(C(F)(F)F)c2c1CCCC2,-1.6%,4.3%
CCOC(=O)c1c(NC(=O)OC)sc(C(=O)N(C)C)c1C,.,-2.1%
O=S(=O)(/N=C(/Nc1ccccn1)c1ccccc1)c1ccccc1,-13.5%,-11.9%
Cc1ccc(-n2cc(C(=O)c3cc(Cl)ccc3O)cc(C#N)c2=O)cc1,?,?
C/C(=N\NC(N)=S)C1(C)CC2(CC(C)(C)OC2=O)C(=O)O1 (centres undefined),-4.7%,-11.2%
CCN(CC)CCN(C(=O)Cn1nnc(-c2ccc(C)o2)n1)C(C(=O)NC(C)(C)C)c1cccs1 (centres undefined),-7.7%,-3.6%
COCCCNC(=O)CSc1nc2ccccc2c(=O)n1Cc1ccc2c(c1)OCO2,i,-3.9%
O=C1CCCC[C@@H](O)[C@H](O)C[C@H](c2ccccc2)O1,-9.1%,11.9%
